Assay outcomes: PubChem, several laboratories
Ecoli growth = blocks Escherichia coli growth; OD600, 23 h; hits give low values; OD600 absorbance (concentration not given with the values); 330,000 compounds, 0.21% hits; AID 1053175;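 active = OD600 absorbance below the run mean of sample wells minus 3.6 SD, in any replicate, cut at about 0.56 in these data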;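 note: stock transfer was 300 nL into about 60 µL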
ALR inh = blocks human ALR sulfhydryl oxidase activity | P55789 | 290,000 compounds, 3.8% hits | purified ALR, DTT oxidation, H2O2 HRP-luminol luminescence | inhibition, % (test concentration not listed);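 active = mean and each replicate at 75% or more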;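 note: stock transfer was 7.5 nL into about 7.5 µL; 0% = neutral wells and 100% = wells with inactivated enzyme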
Target sequence (P55789 whole entry, looked up): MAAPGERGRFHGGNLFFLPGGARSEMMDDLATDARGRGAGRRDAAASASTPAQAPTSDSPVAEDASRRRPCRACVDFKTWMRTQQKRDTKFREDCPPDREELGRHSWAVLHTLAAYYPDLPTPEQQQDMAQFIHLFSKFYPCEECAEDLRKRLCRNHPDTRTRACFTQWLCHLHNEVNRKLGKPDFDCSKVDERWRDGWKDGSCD
B2AR ag = human beta-2 adrenergic receptor agonism by FAP; Am2.2-beta2AR cells, FAP receptor internalization, flow cytometry; reference of the scale not given here; response, % (no concentration beside the values); P07550; 340,000 compounds, 0.43% hits;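 active = response above a set limit, near 3 SD of response in nonfluorescent compounds, cut at about 42% in these data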;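 note: stock transfer was 100 nL into about 11 µL; a reference agonist was the positive control; negative values mostly stem from fluorescent compounds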
Target sequence (P07550 whole entry, looked up): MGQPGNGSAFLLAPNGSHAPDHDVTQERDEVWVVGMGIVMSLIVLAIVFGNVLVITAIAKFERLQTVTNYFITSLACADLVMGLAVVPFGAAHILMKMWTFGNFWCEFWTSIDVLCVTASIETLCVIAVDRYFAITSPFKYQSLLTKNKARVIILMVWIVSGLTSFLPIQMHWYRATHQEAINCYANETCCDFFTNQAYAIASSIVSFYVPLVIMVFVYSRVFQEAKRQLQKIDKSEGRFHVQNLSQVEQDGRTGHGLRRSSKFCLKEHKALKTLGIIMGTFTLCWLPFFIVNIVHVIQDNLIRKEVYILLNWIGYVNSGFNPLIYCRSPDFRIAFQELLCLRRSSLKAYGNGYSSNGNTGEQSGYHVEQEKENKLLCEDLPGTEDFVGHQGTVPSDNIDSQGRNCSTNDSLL
UCH37 DUB inh = blocks the human deubiquitinase UCH37 | Q9Y5K5 | purified proteasome/UCH37, Ub-AMC cleavage fluorescence | inhibition, % (no concentration beside the values) | 330,000 compounds, 0.33% hits;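 active = mean of two replicates above 20%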;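 note: 0% = compound-free wells with enzyme and 100% = wells lacking proteasome; stock transfer was 100 nL into about 20 µL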
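Reagent: Ub-AMC substrate; assay system: Proteasome-associated human UCH37 deubiquitinase; controls: no-proteasome and no-compound wells; read-out: % inhibition of Ub-AMC cleavage fluorescence; timing: 30 min preincubation with enzyme, 25 min cleavage at room temperature; signal: AMC fluorescence from Ub-AMC cleavage, excitation 355 nm, emission 460 nm; buffer or medium: Tris-HCl pH 7.4 plus ovalbumin, ATP-MgCl2, DTT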
FGF22 binding = shifts melting point of recombinant human FGF22 | recombinant FGF22 thermal shift, SYPRO orange fluorescence; percent of sucrose octasulfate shift, DMSO zero | calls only at 9.99 µM | 340,000 compounds, 1.5% hits | AID 651658;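 active = melting point raised past a set limit in the mean and every replicate; three in four hits are not shown here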
Target sequence (Q9HCT0 whole entry, looked up): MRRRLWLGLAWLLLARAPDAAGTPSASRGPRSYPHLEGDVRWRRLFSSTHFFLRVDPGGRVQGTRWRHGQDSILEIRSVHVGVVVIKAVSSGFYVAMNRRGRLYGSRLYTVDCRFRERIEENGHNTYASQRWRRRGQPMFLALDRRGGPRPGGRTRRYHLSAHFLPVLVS
HNF4A DNA FP = change in binding of human HNF4 alpha to DNA; HNF4a-FITC DNA binding, fluorescence polarization, 1 h; 360,000 compounds, 0.3% hits; P41235; activity change, % at 10 µM; AID 1224865; in the data active = activity change above about 30%, passing the limit was not always enough;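 note: controls were the assay level and a saturating level of protein; the project sought stronger binding though the title names inhibitors; some compounds called inactive have numbers as strong as hits; positive values seem to mean higher polarization but the record does not say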
Ecoli rRNA inh = inhibitors of bacterial rRNA selective over humanized ribosomes; AID 720706; GFP signal change (wild-type ribosome), % (test concentration not listed); E. coli WT GFP vs humanized-ribosome RFP mutants, fluorescence, 24 h; hits give low values; DMSO median 0, no signal -100; 350,000 compounds, 1.6% hits;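 active = significant combined selectivity score with lowered wild-type GFP, culture density cut under 30%, mutant RFP and density less affected; inactive = any of these conditions unmet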; note: one replicate is shown; some compounds called inactive have numbers as strong as hits
Ecoli rRNA inh OD600 = further read-out of Ecoli rRNA inh, marked with its call; OD600 change, %; measured here: OD600 growth;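 optical density of the mix in the first replicate; 0 = DMSO median and -100 = no signal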
Ecoli rRNA inh RFP = recorded beside Ecoli rRNA inh, whose call it bears; RFP signal change, %; measured here: RFP humanized mutant strains;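 first replicate; 0 = DMSO median and -100 = no signal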
The depositor's hits bear a star; i = inactive; . = not tested or not shown; & = joins results of further samples.

SMILES	Ecoli growth	ALR inh	B2AR ag	UCH37 DUB inh	FGF22 binding	HNF4A DNA FP	Ecoli rRNA inh	Ecoli rRNA inh OD600	Ecoli rRNA inh RFP
O=C(CSc1nnc(CNC(=O)c2cccs2)o1)NC1CCCCC1	0.67	-3	4	3.3	.	1.9	.	.	.
COc1ccc(CNC(=O)Nc2cccc(Cl)c2)cc1	0.7	-14	-8	3.0	.	-0.5	.	.	.
COc1cc(Cl)ccc1OCc1cc(C(=O)N2C[C@]3(C)C[C@H]2CC(C)(C)C3)no1	0.71	-2	15	6.4	i	-1.7	-16	-17	-1.1
CCOc1ccc(-n2nnnc2SCC(=O)Nc2cccc(O)c2)cc1	0.64	-5	3	0.5	i	0.1	-1	1	1.5
CN(Cc1ccccc1)C(=O)COc1ccc(-c2nnco2)cc1	0.65	-2	-2	5.1	i	-1.2	8	0	-1.0
COc1ccc(NC(=O)Nc2ccc3c(c2)C(=O)N([C@H](C)CO)C[C@@H](C)[C@@H](CN(C)C(=O)C2CCCCC2)OCCCC[C@H](C)O3)cc1	.	.	.	.	i	1.1	9&-1	0&-8	0.7&-0.2
CCc1nnc2n1N=C(c1ccc(OC)cc1)CS2	0.7	9	-4	5.4	.	-2.2	.	.	.
CCOC(=O)c1cccc(NC(=O)CCc2ccccc2)c1	0.69	-3	5	3.4	.	-0.9	-19	-38	-4.9
COc1ccc(OCC(=O)Nc2c(C(=O)N3CCC(N4CCCCC4)CC3)oc3ccccc23)cc1	0.64	1	1	-0.8	i	-2.7	12	-3	-1.4
COc1ccc(CCn2c(C)cc(C(=O)CN3C(=O)C(=O)N(Cc4ccco4)C3=O)c2C)cc1	0.66	-5	-13	0.1	i	-1.1	1	-1	2.3
CN(c1ccc(OCC(=O)N2CCCC2)cc1)S(=O)(=O)c1ccc(Cl)cc1	0.64	0	-3	3.0	i	-0.6	-7	-6	0.1
COCCN(C(=O)c1ccco1)c1nc(-c2ccccc2)cs1	0.67	-5	-6	1.3	i	1.8	-15	-6	-0.8
Cc1cnc(C)c(Nc2nc(C(N)CCc3ccccc3)cs2)n1 (stereo unspecified)	.	.	.	.	i	2.1	4	3	9.6
CC(C)Cc1cc(CNC(=O)C2CCC(=O)N(CCc3cccc(F)c3)C2)on1 (stereo unspecified)	0.73	3	-6	3.3	i	2.6	0	10	-0.7
C=C(C)Cn1c(CCCNC(=O)C(C)(C)C)nc2ccccc21	0.71	0	-6	0.9	.	-3.1	.	.	.
O=C(CCCn1cnc([N+](=O)[O-])n1)Nc1cccc(O)c1	0.67	1	-4	1.6	i	-0.8	8	6	-1.0
COc1ccc(CN(C(=O)CSc2nnc(-c3ccccc3C)o2)c2ccc(F)cc2)cc1	0.84	-10	4	2.3	.	1.1	.	.	.
CCOC(=O)/C(C(N)=NCCO)=C(/O)c1ccccc1	0.71	-12	-8	4.4	.	-2.4	.	.	.
Fc1ccc(-c2nc3ccc(Cl)cn3c2Cc2cccc(Cl)c2)cc1	.	.	.	.	i	6.6	-21*	-20*	-0.9*
CC(C)(C)C1(C)OC(=O)C(=Cc2ccc(OCC(=O)Nc3ccccc3)cc2)C(=O)O1 (stereo unspecified)	0.68	8	7	1.7	.	0.9	.	.	.
O=C(C[n+]1cccc(C(=O)Nc2ccccc2)c1)c1ccc([N+](=O)[O-])cc1	.	-27	-9	.	i	1.4	0	16	5.0
OC[C@@H]1CN(Cc2ccco2)C[C@H](n2cnc3c(N4CCOCC4)ncnc32)O1	.	.	.	.	i	-1.1	12	17	-0.1
O=C(O)CSc1nnc(-c2ccc(Cl)cc2)n1-c1ccccc1	.	86*	-1	.	i	0.8	8	6	6.1
COc1ccc(NC(=O)CC2CCCC2)cc1S(=O)(=O)N1CCCCC1	0.67	.	3	2.5	.	-1.4	.	.	.
COc1ccc(NC(=S)NCCNC(C)=O)cc1	0.66	-7	11	0.6	i	0.3	7	9	-0.7

Some entries already given, showing only Ecoli rRNA inh OD600 and B2AR ag.
Compound | Ecoli rRNA inh OD600 | B2AR ag
COc1ccc(CCn2c(C)cc(C(=O)CN3C(=O)C(=O)N(Cc4ccco4)C3=O)c2C)cc1 | -1 | -13
CN(c1ccc(OCC(=O)N2CCCC2)cc1)S(=O)(=O)c1ccc(Cl)cc1 | -6 | -3
COCCN(C(=O)c1ccco1)c1nc(-c2ccccc2)cs1 | -6 | -6
Cc1cnc(C)c(Nc2nc(C(N)CCc3ccccc3)cs2)n1 (stereo unspecified) | 3 | .
CC(C)Cc1cc(CNC(=O)C2CCC(=O)N(CCc3cccc(F)c3)C2)on1 (stereo unspecified) | 10 | -6
C=C(C)Cn1c(CCCNC(=O)C(C)(C)C)nc2ccccc21 | . | -6

(listing goes on)
SMILES	Ecoli growth	ALR inh	B2AR ag	UCH37 DUB inh	FGF22 binding	HNF4A DNA FP	Ecoli rRNA inh	Ecoli rRNA inh OD600	Ecoli rRNA inh RFP
Cc1ccc(C(=O)NCC(=O)OC(C)C(=O)Nc2ccc(N3CCOCC3)cc2)s1 (stereo unspecified)	0.68	93*	4	2.3	i	7.6	1	-1	-2.6
CCc1cc2c3c(c1)C1(C(=O)N3C(C)(C)CC2C)C(C#N)=C(N)N2C(=C1C#N)Nc1ccccc12 (stereo unspecified)	0.68	3	-11	-5.4	.	3.5	.	.	.
Cc1cc(Nc2ccc(C(C)C)cc2)n2ncnc2n1	0.65	0	-2	2.2	i	0.2	-5	-17	-1.4
COCCNC(=O)c1cnn2c(C(F)(F)F)cc(-c3ccc(C)cc3)nc12	0.68	.	-2	-65	i	2.0	-1	6	0.1
COc1ccc(NC(=O)CC(=O)Nc2ccc(OC)cc2OC)c(OC)c1	0.7	-26	-1	-3.4	.	2.5	.	.	.
O=C1CCCN1CC(CN1CCOCC1)Sc1nc2ccccc2c(=O)n1-c1ccccc1 (stereo unspecified)	0.7	.	18	4.2	.	-1.8	1	7	0.8
COc1ccc(CNC(=O)CCCc2ccccc2)cc1	0.73	0	-2	0.4	.	1.2	.	.	.
CCc1ccc(S(=O)(=O)NCc2csc(-c3ccccc3)n2)s1	0.67	-7	-1	5.5	.	-0.1	.	.	.
CCOc1ccc(S(=O)(=O)N2CCOCC2)cc1NC(=O)CSCc1c(C)noc1C	0.68	40	3	5.4	i	3.2	3	6	1.9
CC(C)CNC(=O)COC(=O)c1cc(S(=O)(=O)N(C)C)ccc1N1CCCC1	0.69	1	0	3.3	i	0.9	-1	-1	0.5
Cc1cc(C(=O)COC(=O)c2cccnc2Cl)c(C)n1-c1c(C)n(C)n(-c2ccccc2)c1=O	0.72	11	1	3.3	i	-0.4	7	5	1.1
CCOc1ccc(N(CC(=O)NC(C)(C)C)S(=O)(=O)c2c(C)noc2C)cc1	0.73	-138	-12	5.8	i	0.4	-1	-2	0.0
COc1ccc(NC(=O)C(CC(C)C)NC(=O)c2ccccc2C)cn1 (stereo unspecified)	0.73	-13	4	2.5	.	-0.3	.	.	.
COCCCNC(=O)c1cc2c(s1)CS(=O)(=O)C2	0.69	-8	0	3.4	.	1.4	.	.	.
COc1ccc(C(=O)CN2CCN(CCN3C(=O)c4cccc5cccc(c45)C3=O)CC2)cc1	0.71	5	5	-4.5	i	4.3	-19	-13	-2.6
Cc1ccc2c(C)c(C(=O)N3CCCCC3CO)oc2c1C (stereo unspecified)	0.66	1	-10	4.3	i	13	-12	-21	-2.6
C[C@H](NC(=O)/C=C/[C@H]1O[C@@H](n2ccc(=O)[nH]c2=O)[C@H](O)[C@@H]1O)C(=O)O	.	.	.	.	i	-1.6	11	-1	-4.4
O=C(NCCc1ccc(Cl)cc1)/C(=C/c1cccnc1)NC(=O)c1ccccc1	0.69	5	-6	0.3	i	-1.7	-15	-15	-1.0
COc1ccc(OC)c(N(CC(=O)Nc2ccc3c(c2)OCO3)S(=O)(=O)c2ccccc2)c1	0.71	.	7	2.6	.	-4.9	.	.	.
CN(C)S(=O)(=O)Nc1cc(Cl)cc(Cl)c1	0.63	-2	-6	-1.0	i	-0.8	-37*	-28*	-6.8*
COc1cc(OC)c2c(=O)c(OC)c(-c3ccc(OC)c(OC)c3)oc2c1	0.73	-4	-2	-266	.	3.6	.	.	.
CC(C)CC(CO)N1CCN(C(=O)c2cccc(Cl)c2)CCC1=O (stereo unspecified)	0.69	-5	5	1.3	i	-4.0	8	9	5.1
COCCNC(=O)c1cccc(OC2CCN(Cc3ccccc3C)CC2)c1	0.7	1	4	2.4	i	1.1	8	3	1.8
Cc1cccc(-n2c3nc(=O)[nH]c(=O)c-3cc3cc([N+](=O)[O-])ccc32)c1	0.66	-30	21	-0.8	i	2.8	-13	-8	6.2
O=C1C2CCCCN2C(=O)N1CCN1CCN(c2cccc(Cl)c2)CC1 (stereo unspecified)	.	.	3	.	i	1.3	-3	0	-1.5

A second format for some results above:
| Structure | Ecoli growth | ALR inh | B2AR ag | UCH37 DUB inh | FGF22 binding | HNF4A DNA FP | Ecoli rRNA inh | Ecoli rRNA inh OD600 | Ecoli rRNA inh RFP |
| --- | --- | --- | --- | --- | --- | --- | --- | --- | --- |
| COc1ccc(C(=O)CN2CCN(CCN3C(=O)c4cccc5cccc(c45)C3=O)CC2)cc1 | 0.71 | 5 | 5 | -4.5 | i | 4.3 | -19 | -13 | -2.6 |
| Cc1ccc2c(C)c(C(=O)N3CCCCC3CO)oc2c1C (stereo unspecified) | 0.66 | 1 | -10 | 4.3 | i | 13 | -12 | -21 | -2.6 |

(more compounds)
SMILES	Ecoli growth	ALR inh	B2AR ag	UCH37 DUB inh	FGF22 binding	HNF4A DNA FP	Ecoli rRNA inh	Ecoli rRNA inh OD600	Ecoli rRNA inh RFP
COc1ccc(Cn2nnnc2C(c2ccccc2OC)N2CCC(C(N)=O)CC2)cc1 (stereo unspecified)	0.69	0	3	0.7	.	0.0	.	.	.
CSc1nnc(-c2sc3cc(C(F)(F)F)cnc3c2-c2cccnc2)n1C	0.78	.	-6	-10	.	0.6	.	.	.
Cc1noc(C)c1COC(=O)c1cccc(S(=O)(=O)N2CCCCCC2)c1	0.71	-17	7	2.7	.	2.5	.	.	.
Cc1nc(NNC(=O)c2ccccc2)cc(-c2ccccc2)n1	0.67	91*	3	-0.8	.	0.7	.	.	.
CCOc1ccc(CCNC(=O)CS(=O)Cc2nc(-c3ccc(OC)cc3)oc2C)cc1OCC (stereo unspecified)	0.73	99*	4	3.0	i	1.2	-8	-1	-0.7
O=C(CS(=O)(=O)c1c[nH]c2ccccc12)Nc1ccc(F)cc1	.	-2	-1	.	i	-1.4	10	5	3.0
CCOC(=O)C1CCCCN1C(=O)CCc1nnc(-c2ccc3c(c2)OCO3)o1 (stereo unspecified)	0.69	-7	2	-4.3	i	-1.1	1	9	0.6
Cc1ccc(N=C(N(C)C)P(=O)(N(C)C)N(C)C)c(C)c1	0.64	65	-1	2.0	i	1.6	-6	10	-2.6
O=C(COc1cccnc1[N+](=O)[O-])NCc1cccs1	0.64	-7	-6	3.6	i	-0.9	6	-8	-6.8
Cc1ccc2cccc(OCc3ccc(F)cc3)c2n1	0.66	-2	7	-0.3	i	1.6	-14	-7	0.8
Cc1oc(-c2ccccc2Cl)nc1CS(=O)(=O)CC(=O)N1CCOCC1	0.7	98*	3	-3.0	i	-2.9	-1	-3	-3.5
CN(Cc1cccs1)C(=O)CN1C(=O)c2ccccc2S1(=O)=O	0.64	2	8	1.2	i	0.4	5	1	-2.2
COc1ccc(OC)c(N(C(=O)c2ccco2)C(C(=O)NC2CCCC2)c2cc(OC)c(OC)c(OC)c2)c1 (stereo unspecified)	0.69	.	4	-1.1	i	6.4	11	9	2.4
CC(=O)c1cc2c(cc1NC(=O)Nc1cccc(Cl)c1)OCCO2	0.79	-4	1	-30	.	-3.6	.	.	.

An excerpt; rates above refer to the full screens.
